Hsc70 ATP site = Hsc70 inhibitors, probe displacement, primary screen, biochemical, fluorescence polarization (AID 568); one-dose displacement, % at 20 µM; IC50 in µM for titrated hits; Heat shock cognate 71 kDa protein (Homo sapiens); 83,000 tested, under 10 active; Hsc70 fluorescence polarization, probe displacement; higher % means a stronger effect; strong numbers were not always called active;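 active = displacement above 50% without optical interference and an IC50 on retest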;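 note: ATPase domain with a fluorescein-tagged ATP probe; 0% = vehicle and 100% = excess ADP; read after one hour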
MT1-MMP reporter = inhibitors of MT1-MMP promoter transcription, cell-based, luciferase reporter, luminescence (AID 618); MT1-MMP promoter luciferase reporter cells, luminescence; calls from a first round at 10 µM; hits with a dose series show EC50 in µM; 0.62% of 87,000 active;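 active = over half of the reporter light lost at 10 µM or EC50 under 50 µM; inactive = the rest and hits that failed the dose series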;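 note: actives suppress MT1-MMP promoter-driven transcription so potencies describe inhibitors; HT1080 fibrosarcoma cells; overnight exposure; toxic or luciferase-blocking compounds were not removed from the actives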
WNV protease inh = inhibitors of WNV NS2B-NS3 protease, primary screen, biochemical, fluorogenic substrate | Genome polyprotein (West Nile virus), P06935 | fluorogenic substrate Ex360/Em465; hits give low values | z-score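 (tested at a level between 10 and 100 µM)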 | 0.18% of 65,000 active | AID 577, 2007;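 active = z-score at -3 or under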;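 note: score is relative to mean and spread of the compound wells of a plate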
Target sequence (P06935 1371-1501 limits assumed): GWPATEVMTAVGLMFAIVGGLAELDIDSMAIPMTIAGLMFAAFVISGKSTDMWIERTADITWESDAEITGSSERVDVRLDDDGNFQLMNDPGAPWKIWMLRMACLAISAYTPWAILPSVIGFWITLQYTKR
Target sequence (P06935 1502-1679 limits assumed): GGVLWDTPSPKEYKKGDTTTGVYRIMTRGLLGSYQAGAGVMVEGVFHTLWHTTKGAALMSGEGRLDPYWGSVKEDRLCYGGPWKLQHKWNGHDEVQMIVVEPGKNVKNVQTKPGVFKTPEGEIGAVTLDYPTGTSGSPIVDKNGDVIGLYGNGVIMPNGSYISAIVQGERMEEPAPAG
Active calls of the source: *; i = inactive; . = no result given. Only part of the results is shown, so the mix of outcomes need not match the whole.

SMILES | Hsc70 ATP site | MT1-MMP reporter | WNV protease inh
COc1cc(S(=O)(=O)N2CCN(c3ccccc3F)CC2)c(OC)cc1Cl | -0.7% | i | 0.27
C=CCn1c(SCc2nc(N)nc(N3CCCCC3)n2)nnc1-c1ccco1 | 0.0% | i | -0.3
COc1ccc(-c2csc(N(CC3CCCO3)C(=O)c3ccco3)n2)cc1 (stereo unspecified) | 0.3% | i | -0.47
COc1cc(OC)c(OC)cc1/C=N/N(C)c1ccccc1 | -3.1% | i | .
CC(=O)Nc1nc(C=C(Cl)Cl)cs1 | 0.5% | i | 0.62
CCCOc1cc(CN2CCCCC2)cc(C(C)=O)c1 | -1.1% | i | -0.08
O=C(NCCCc1ccccc1)c1ccccc1 | 5.5% | i | .
COc1ccc(NC(=O)C2CCN(S(=O)(=O)c3cccc4cccnc34)CC2)cc1OC | 1.2% | i | -0.04
O=S(=O)(NCc1ccc(F)cc1)c1cccc(S(=O)(=O)N2CCOCC2)c1 | 6.1% | i | .
Cc1cccc2nc(CSCc3ccco3)cn12 | -1.8% | i | 0.64
CCOC(=O)C1=C(C)OC(N)=C(C(=O)OCC)C1c1cccnc1 (stereo unspecified) | 5.0% | i | -0.53
Cc1ccc(N(CC(=O)NC(C)c2ccccc2)S(=O)(=O)c2cccs2)cc1 (stereo unspecified) | -6.2% | i | .
COCCCNC(=O)c1ccc(NS(C)(=O)=O)cc1 | -1.2% | i | -0.46
Cc1oc2ccc(O)c(CN3CCOCC3)c2c1C(C)O (stereo unspecified) | 0.5% | i | .
O=C(NCc1ccccc1)c1ccc2c(c1)OCCO2 | -1.7% | i | -0.44
Cc1occc1C(=O)N1CCN(C(c2ccccc2)c2ccccc2)CC1 | 1.1% | i | 1.3
COc1ccc(OC)c(N2Cc3cc(C)c(C)cc3C2)c1 | -8.2% | i | 0.29
Cc1c(C(=O)N2CCN(c3ccc(C(F)(F)F)cn3)CC2)oc2ccccc12 | -4.6% | i | 1.7
CN(CCO)c1nc(N)c2c(N)nc3c(c2c1C#N)CC(=O)N3C1CCCC1 | 0.6% | i | .
Cc1ccc(SCc2cn3c(C)csc3n2)cc1 | -3.8% | 5.8µM* | -1.2
O=C(NCC1CCCO1)c1ccc(NC(=O)C2CC=CCC2C(=O)O)cc1 (stereo unspecified) | -0.8% | i | -0.17
Cc1cc(Cl)ccc1OCC(=O)NCCOc1nc(N2CCCCC2)nc(N2CCOCC2)n1 | -3.1% | i | .
Cc1cnc(C(=O)Nc2ccccc2C(=O)N2CCOCC2)cn1 | -0.4% | i | -0.17
Nc1nc(-c2ccco2)cs1 | 1.0% | i | 1.8
COc1ccc(C2C(C#N)=C(C)NC3=C2C(=O)CC(C)(C)C3)cc1 (stereo unspecified) | 1.6% | i | .
COC(=O)NC1(C(F)(F)F)C(=O)NC(C)=C1C(=O)OC (stereo unspecified) | 1.8% | i | -0.11
Oc1ccc(Br)cc1-c1cc(-c2ccco2)[nH]n1 | -4.0% | i | .
CC1CC(NC(=O)CCn2c(=O)oc3ccccc32)CC(C)(C)C1 (stereo unspecified) | 2.9% | i | -0.45
COc1ccc(-c2nn(C)c(=O)c3ccccc23)cc1CNC(=O)c1ccco1 | 0.5% | i | 0.67
CC(C)(C)c1[nH]nc2c1C(c1ccoc1)C(C#N)=C(N)O2 (stereo unspecified) | -3.1% | i | .
COC(=O)C1=C(C)C(c2cccs2)NC(=O)N1C (stereo unspecified) | 5.8% | i | -0.01
Cc1ccc(S(=O)(=O)NCCN2CCOCC2)cc1C | 0.9% | i | -0.66
Cc1ccc(C2SCC(=O)N2Cc2cn3ccsc3n2)o1 (stereo unspecified) | -1.0% | i | -0.07
COC(=O)CCC/C=C1/SCC(NC(=O)c2ccccc2)C1=O (stereo unspecified) | 1.5% | i | .
CN(C)c1nc(Oc2ccc(=O)[nH]n2)nc(N2CCCCC2)n1 | 2.8% | i | -0.16
Cc1c(N2C(=O)c3ccc(Br)cc3C2=O)c(=O)n(-c2ccccc2)n1C | 1.2% | i | .
COC(=O)CC(NC(=O)c1ccc(C)cc1)c1ccccc1 (stereo unspecified) | -2.1% | i | .
Nc1cc(-c2ccccc2)ccc1O | -3.8% | i | -0.56
NC(=O)C1(N2CCCCC2)CCN(C(=O)NC2CCCCC2)CC1 | -1.5% | i | -0.5
CCOC(=O)NC(NCC(O)c1ccccc1)(C(F)(F)F)C(F)(F)F (stereo unspecified) | -1.0% | i | 0.78
Cc1ccc(C(=O)C2COC(=O)C2)cc1 (stereo unspecified) | -9.5% | i | 1
CCc1nnc(NC(=O)C2CCCCC2)s1 | -2.7% | i | -0.81
CCOC(=O)C(NC(=O)CC)(Nc1cc(C)on1)C(F)(F)F (stereo unspecified) | -2.0% | i | -0.31
COc1ccc(OC)c(CN2C(=O)c3ccccc3C2C(=O)NCc2cccnc2)c1 (stereo unspecified) | 1.0% | i | -0.57
CCCn1c(SCC(=O)NCCc2ccccc2)nnc1-c1ccco1 | 1.1% | i | .
COC(=O)c1cccc(N(C(=O)c2ccco2)C(C(=O)NC2CCCC2)c2ccco2)c1 (stereo unspecified) | 1.6% | i | .
Cn1c(=O)[nH]c(=O)c2c1nc(NCCCn1ccnc1)n2Cc1cccc(Br)c1 | -0.9% | i | -0.12
O=c1c(/C=C(\O)c2ccc(F)cc2)nc2ccccc2n1-c1ccccc1 | -60% | i | .
CN(C)S(=O)(=O)N1CCN(C(=O)c2cccs2)CC1 | 7.0% | i | .
NC(=O)C1CCN(c2nc(C3CC3)nc3c2nnn3Cc2ccccc2)CC1 | -0.3% | i | -0.53
O=C(O)CCC(=O)OCC1CCCCC1 | -6.1% | i | .
O=C(CC1N=C2c3ccccc3N=C(SCc3ccccc3Cl)N2C1=O)NCc1ccco1 (stereo unspecified) | -3.3% | i | 1.5
CCn1cnc2cc(NCc3ccncc3)ccc21 | 7.4% | i | 0.03
NC(=O)CCn1c(=O)oc2ccccc21 | 3.6% | i | 0.49
NC(=O)CSc1nnc(Cn2c(=O)sc3ccccc32)n1CCc1ccccc1 | -1.0% | i | -0.31
Cc1nc2sc(C(c3ccccc3)N3CCC(O)CC3)c(O)n2n1 (stereo unspecified) | 2.9% | i | 0.52
O=c1cc(-c2ccc(Cl)cc2)[nH][nH]1 | -5.1% | i | -0.62
CCOC(=O)c1ccccc1NC(=O)CSc1ncc(C(=O)OCC)c(N)n1 | 1.2% | i | 0.67
COCCn1nnnc1C(c1ccc(Cl)cc1)N1CCSCC1 (stereo unspecified) | -12% | i | 1.7
O=C(NCc1cccs1)c1csc2ccccc12 | -0.2% | i | -0.25

Whole records, quoted from the list.
CCn1cnc2cc(NCc3ccncc3)ccc21 is entered as Hsc70 ATP site = 7.4%; MT1-MMP reporter = i; WNV protease inh = 0.03
Cn1c(=O)[nH]c(=O)c2c1nc(NCCCn1ccnc1)n2Cc1cccc(Br)c1 is entered as Hsc70 ATP site = -0.9%; MT1-MMP reporter = i; WNV protease inh = -0.12
COc1ccc(OC)c(CN2C(=O)c3ccccc3C2C(=O)NCc2cccnc2)c1 (stereo unspecified) is entered as Hsc70 ATP site = 1.0%; MT1-MMP reporter = i; WNV protease inh = -0.57

More results follow.
SMILES | Hsc70 ATP site | MT1-MMP reporter | WNV protease inh
Cc1occc1C(=O)Nc1cccc2ccccc12 | 0.5% | i | -0.42
Cc1cc2ncn(N)c2cc1C | -1.6% | i | 0.26
CS(=O)(=O)N1CCN(c2nc(-c3ccccc3)cs2)CC1 | -2.8% | i | -0.47
CCOC(=O)CSc1nc2ccc(NC(C)=O)cc2s1 | 7.2% | i | -0.44
CS(=O)(=O)N(CC(=O)N1CCC(C(N)=O)CC1)C1CCCCC1 | -2.9% | i | -1.2
CCCc1[nH][nH]c(=O)c1C(c1ccc(Br)cc1)C(C#N)C#N (stereo unspecified) | -4.0% | i | .
Cn1c(=O)c2ncn(CC(=O)Nc3cc(C(F)(F)F)ccc3N3CCOCC3)c2n(C)c1=O | -2.2% | i | -0.17
CCOC(=O)CN1C(=O)C(C)(C)Oc2ccc(C(=O)Nc3ccccc3OC)cc21 | 1.8% | i | -0.65
COc1cccc(C2=CC(c3ccc(N(C)C)cc3)n3nnnc3N2)c1 (stereo unspecified) | 4.1% | i | -0.46
CN(C)C(=O)COc1ccc2ccc(=O)oc2c1 | -3.8% | i | 1.4
Cn1c(C(=O)Nc2ccc3c(c2)OCO3)cc2sccc21 | 2.1% | i | 0.99
O=S(=O)(N1CCOCC1)n1cnc2ccccc21 | 7.0% | i | .
Cc1ccccc1OCC(=O)Nc1cccc(N(C)S(C)(=O)=O)c1 | 3.1% | i | 3.2
CCOC(=O)Cc1csc(NC(=O)CSc2nnnn2-c2ccc(F)cc2)n1 | -2.7% | i | -1.1
Cc1c(C)n(C)c2ccc([N+](=O)[O-])cc12 | -1.6% | i | .
Cc1ccc(S(=O)(=O)CCc2nc3ccccc3s2)cc1C | 3.2% | i | .
COc1ccc(OCCSc2ncccn2)cc1 | 1.8% | i | 1.2
CCOC(=O)c1ccccc1NC(=O)CSc1nnnn1C | 2.2% | i | .
CC(=O)c1n[nH]nc1Nc1nc(C)cc(C)n1 | -0.7% | i | -0.24
CC/C(CC(C)(C)c1ccccc1)=N\O | -3.1% | i | 0.83

At a glance, 2 of the compounds above:
SMILES | Hsc70 ATP site | MT1-MMP reporter | WNV protease inh
CN(C)C(=O)COc1ccc2ccc(=O)oc2c1 | -3.8% | i | 1.4
Cn1c(C(=O)Nc2ccc3c(c2)OCO3)cc2sccc21 | 2.1% | i | 0.99

(continued)
SMILES | Hsc70 ATP site | MT1-MMP reporter | WNV protease inh
O=C(CSc1nnnn1Cc1ccccc1)NCCc1ccccc1 | 0.7% | i | 0.24
Cc1ccccc1Cn1ccc(NC(=O)c2onc(C)c2Cl)n1 | 2.1% | i | 0.0058
CCC(C)Sc1nnc(Cc2cc(=O)[nH]c(=O)[nH]2)n1-c1ccc(OC)cc1 (stereo unspecified) | -1.5% | i | -0.47
O=C(Oc1cncc(Cl)c1)c1ccco1 | 0.5% | i | .
CCn1cc(C(=O)N2CCN(c3ccccn3)CC2)c2cc(OC)c(OC)cc2c1=O | 4.9% | i | 0.87
COc1ccc(C(=O)N(Cc2ccco2)Cc2cc3cc(C)ccc3[nH]c2=O)cc1OC | 2.5% | i | -0.38
O=C(O)CS(=O)(=O)CC(=O)O | -8.3% | i | -0.0048
CSCC[C@H](NC(=O)c1nn(C)c(=O)c2ccccc12)c1nc2ccccc2[nH]1 | -4.4% | i | .
COC(=O)c1cc(OC)c(OC)cc1NC(=O)CCc1ccc(C)o1 | -3.8% | i | -0.28
Cc1cccc(-n2c(SCCC(=O)O)nnc2-c2cccs2)c1C | 7.5% | i | 0.09
CCCc1nnc(SCC(=O)N2CCCC(C)C2)n1CC1CCCO1 (stereo unspecified) | -0.2% | i | .
C=CCn1c(SCc2csc(C)n2)nc2scc(-c3ccc(C)o3)c2c1=O | -1.3% | i | -0.76
CN1C(=O)c2ccc(N(C)C)cc2C1=O | 8.8% | i | 0.73
CCN(CC)C(=O)CN1CCC(n2c(C)nc3cc(C(F)(F)F)ccc32)CC1 | 0.0% | i | -0.81
C=CCOc1ccc(C2/C(=C(\O)c3c(C)[nH]c(C(=O)OC)c3C)C(=O)C(=O)N2CCN(C)C)cc1 (stereo unspecified) | -0.6% | i | -0.25
O=C(/C=N/O)NCc1cccnc1 | 0.2% | i | -0.97
Cc1ccc2cc(CN(CCCN3CCOCC3)C(=O)NC3CCCCC3)c(=O)[nH]c2c1C | -0.7% | i | -0.21
CCCCCCn1c(CN2CCC(C)CC2)nc2c1c(=O)n(C)c(=O)n2C | 1.2% | i | -0.89
COc1ccc(-c2cnc(N)nc2-c2ccc(OC)cc2O)cc1 | -4.3% | i | -0.45
Cc1ccc(-c2cc(C(F)F)n3ncc(C(=O)N4CCCc5ccccc54)c3n2)cc1 | 1.3% | i | .

Three entries out of the list, sorted by formula weight, lowest first.
SMILES | Hsc70 ATP site | MT1-MMP reporter | WNV protease inh
O=C(/C=N/O)NCc1cccnc1 | 0.2% | i | -0.97
Cc1ccccc1Cn1ccc(NC(=O)c2onc(C)c2Cl)n1 | 2.1% | i | 0.0058
Cc1ccc(-c2cc(C(F)F)n3ncc(C(=O)N4CCCc5ccccc54)c3n2)cc1 | 1.3% | i | .

(listing goes on)
SMILES | Hsc70 ATP site | MT1-MMP reporter | WNV protease inh
CC(O)CNC(=O)C1CCN(Cc2ccc(OCc3ccccc3)cc2)CC1 (stereo unspecified) | 0.3% | i | -0.92
Cc1nc2ccccn2c1-c1csc(NCc2ccco2)n1 | 5.0% | i | -0.25
Cc1ccc2c(c1)CCCN2C(=O)c1cccs1 | 12% | i | 0.43
COc1cc(OC)c(OC)cc1CNCCNC(=O)c1nonc1N | 5.1% | i | -1.1
COc1ccc(NC(=O)CSc2nc3sc(C)c(C)c3c(=O)n2Cc2ccco2)cc1 | 1.0% | i | -0.7
COc1cc(/C=N/N2C(=O)CSC2=S)ccc1O | 18% | i | .
COC(=O)c1ccc(NC(=O)CSc2nnc(Cc3cccn3C)n2-c2ccc(F)cc2)cc1 | -2.9% | i | -1.8
O=C(c1nnc(Cc2ccc(Cl)cc2)o1)N1CCOCC1 | -2.7% | i | 0.75
Cn1c(Br)nc2c1c(=O)n(CC(O)COc1ccccc1)c(=O)n2C (stereo unspecified) | -8.0% | i | -0.98

Assay outcomes as filed in PubChem BioAssay.
